T cruzi inh = blocks replication of Trypanosoma cruzi; T. cruzi beta-gal in NIH3T3, luminescence, 90 h; inhibition, % (concentration not given with the values); hit rate 1.4% among 300,000; AID 1885;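 active means mean inhibition across valid replicates above about 55%, limit read from the data; inconclusive means mean below that limit but half or more replicates reach it; inactive means mean below it, under half of replicates reach it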;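 further: signal also drops with host cell toxicity which is not excluded here; 0% = plate median of DMSO wells and 100% = zero luminescence signal; higher percent means less beta-gal luminescence so fewer parasites; stock transfer was 50 nL into about 50 µL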
Beta apoptosis = blocks beta cell apoptosis | INS-1E cytokine-induced death, ATP luminescence, 48 h; percent of positive-control rescue, neutral wells zero | protection from apoptosis, % (no concentration beside the values) | hit rate 0.8% among 300,000;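 active means all replicates at 75% or more, or half of them and the mean; inconclusive means half reach 75% but not the mean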;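 further: 0% = cytokine-treated negative control wells and 100% = positive control rescue; higher means more ATP so stronger rescue from cytokine killing; wells of about 40 µL received 100 nL stock; the first replicate is given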
rRNA inh HTS = inhibitors of bacterial rRNA selective over humanized ribosomes; E. coli WT GFP vs humanized-ribosome RFP mutants, fluorescence, 24 h; active compounds read low; DMSO median 0, no signal -100; GFP signal change (wild-type ribosome), % (test concentration not listed); hit rate 1.6% among 350,000; AID 720706;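 active means significant combined selectivity score with lowered wild-type GFP, culture density cut under 30%, mutant RFP and density less affected; inactive means any of these conditions unmet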; further: one replicate is shown; some compounds called inactive have numbers as strong as hits
RanGTP-Imp inh = disruptors of Ran-importin-beta complex formation – biochemical, FRET, CFP-Ran, YFP-importin-beta, homogeneous, primary screen; hit rate 1.1% among 300,000; cell-free CFP-Ran/YFP-importin-beta FRET ratio; inhibition, % (concentration not given with the values);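 active means most replicates above 15%; inconclusive means exactly half above 15%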;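 further: 0% = DMSO wells and 100% = Ran loaded with GDP instead of GTP; wells of about 40 µL received 100 nL stock; the first replicate is given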
Vif A3G = HIV-1 Vif–A3G interaction blockers – biochemical, TR-FRET, GST-Vif 1-94, biotin-A3G peptide, dose response retest, primary screen (AID 1117319). inhibition, %; hits with a dose series show IC50 in µM. hit rate 0.57% among 260,000. TR-FRET GST-Vif / biotin-A3G peptide binding; higher % means a stronger effect; test concentration not given here; strong numbers were not always called active;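 active means above the screen mean plus three standard deviations and confirmed in dose response; inconclusive means results disagree or hit not tested in dose response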;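 further: Vif residues 1-94 fused to GST binding biotinylated APOBEC3G peptide 110-148; 0% = full assay without inhibitor and 100% = GST in place of GST-Vif; retest series ran down from 100 µM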
A1 inh = inhibitors of the anti-apoptotic protein A1, read as caspase activation; caspase activation, % (no concentration beside the values); AID 2462; MEF A1-2A-BIM cells, Caspase-Glo 3/7 luminescence, 3 h; percent of clofoctol response, vehicle zero; hit rate 0.066% among 330,000;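 active means over half of replicate activation scores above 10%, or exactly half above 10 with the replicate mean above 10; inconclusive means replicate mean below 10 yet half the replicates above 10; inactive means over half of replicates below 10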;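 further: wells of about 30 µL received 50 nL stock; many hits fall short of the cut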
Calb FLC = C. albicans growth modulation with fluconazole | C. albicans CaCi-2 (fluconazole-resistant clinical isolate) + fluconazole, Alamar Blue growth, 48 h | growth inhibition, % (no concentration beside the values) | hit rate 0.57% among 300,000 | AID 1979;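 active means most replicates above 75%; inconclusive means exactly half above 75%; inactive means most below 75%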;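 further: all wells also contain fluconazole at 8 µg/ml as a sub-toxic cotreatment; 0% = median of DMSO wells and 100% = median of geldanamycin control wells; wells of about 8 µL received 7.5 nL stock; the first replicate is given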
MLL AF4-AF9 inh = MLL-AF4/AF9 protein interaction inhibition; inhibition, % at 10 µM; AlphaScreen, biotin-AF4 peptide binding to FLAG-AF9; P42568; hit rate 0.47% among 350,000;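 active means every replicate reaching a set inhibition limit, whatever the replicate mean, cut at about 25% in these data; inconclusive means mean inhibition reaches that limit but some replicates miss it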;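 further: 0% = plate neutral control median and 100% = total signal loss; the record names both 10 and 1 µM as test concentration; the first replicate is given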
Target sequence (P42568 whole entry, looked up): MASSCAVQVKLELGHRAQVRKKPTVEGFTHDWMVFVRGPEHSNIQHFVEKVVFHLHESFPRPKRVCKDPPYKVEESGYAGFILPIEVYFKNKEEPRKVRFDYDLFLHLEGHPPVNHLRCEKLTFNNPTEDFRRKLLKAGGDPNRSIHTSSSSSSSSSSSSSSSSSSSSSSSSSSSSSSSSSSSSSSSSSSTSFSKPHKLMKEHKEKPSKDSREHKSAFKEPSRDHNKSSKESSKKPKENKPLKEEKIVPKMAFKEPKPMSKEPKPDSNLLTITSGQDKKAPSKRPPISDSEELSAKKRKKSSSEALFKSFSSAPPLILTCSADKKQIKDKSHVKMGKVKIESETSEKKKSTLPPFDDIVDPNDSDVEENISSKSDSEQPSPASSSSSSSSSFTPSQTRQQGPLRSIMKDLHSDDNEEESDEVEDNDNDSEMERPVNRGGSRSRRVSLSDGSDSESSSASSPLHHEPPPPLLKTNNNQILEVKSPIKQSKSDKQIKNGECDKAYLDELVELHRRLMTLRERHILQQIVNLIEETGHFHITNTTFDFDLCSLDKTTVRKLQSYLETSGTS
rRNA inh HTS OD600 = further read-out of rRNA inh HTS, marked with its call; OD600 change, %; measured here: OD600 growth;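 optical density of the mix in the first replicate; 0 = DMSO median and -100 = no signal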
rRNA inh HTS RFP = further read-out of rRNA inh HTS, marked with its call; RFP signal change, %; measured here: RFP humanized mutant strains;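 first replicate; 0 = DMSO median and -100 = no signal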
Numbers without * were called inactive; ? = inconclusive; · = not tested or not shown. An excerpt, so the mix of outcomes need not match the whole.

SMILES	T cruzi inh	Beta apoptosis	rRNA inh HTS	rRNA inh HTS OD600	rRNA inh HTS RFP	RanGTP-Imp inh	Vif A3G	A1 inh	Calb FLC	MLL AF4-AF9 inh
Cc1noc(C)c1S(=O)(=O)N1CCN(Cc2ccc3c(c2)OCO3)CC1	8	-1	2	9	0.3	9.1	2%	0.5	?	-0.9
COc1cccc(CNC(=O)COC(=O)c2nn(C)c(=O)c3ccccc23)c1	·	-4	-2	-14	-2.7	·	-12%	-2.1	·	-0.6
Cc1ccc(S(=O)(=O)CC(=O)N(CCCN2CCOCC2)c2nc3c(F)cccc3s2)cc1	11	-3	6	3	-1.4	?	-1%	-0.3	9	-2.1
O=C(OCC(=O)N1CCC(Cc2ccccc2)CC1)c1cccnc1Cl	·	-4	1	-17	-0.2	·	1%	-1.1	·	-0.6
O=C(Nc1ccc(F)c([N+](=O)[O-])c1)c1cccs1	16	15	4	0	3.6	-7.8	·	-1.3	1	-0.5
Cc1cccc2cc(CN(CC3CCCO3)C(c3nnnn3Cc3ccco3)C(C)C)c(=O)[nH]c12 (stereo unspecified)	31	-4	·	·	·	-1.4	22%	0.0	0	·
O=c1oc(CCCO)cc2ccc(Br)cc12	·	-3	-2	5	-3.3	·	-4%	0.1	·	-0.8
CSc1ccc(-c2sc(Nc3ccccc3)n[n+]2-c2ccccc2)cc1	25	24	·	·	·	0.0	·	-7.2	-27	·
Cc1cc(C)c(S(=O)(=O)NNC(=O)C2CCN(Cc3ccccc3)CC2)c(C)c1	2	-2	·	·	·	4.5	-12%	0.6	-5	·
O=C1N(C2CCCC2)C[C@@H]2C[C@@H](c3cn[nH]c3-c3ccc(Cl)cc3)N3CCC[C@@]123	13	5	·	·	·	?	·	0.5	-18	·
CCC(C)C(=O)Nc1nc(C)c(-c2csc(Nc3ccccc3OC)n2)s1 (stereo unspecified)	2	1	0	2	-0.2	4.4	7%	0.4	5	·
CC(=O)c1ccc(N2CCN(c3ccnc4cc(Cl)ccc34)CC2)cc1	-19	8	-7	-12	0.2	0.1	·	0.4	?	-2.5
CCn1c(-c2ccccc2SC)n[nH]c1=S	5	-8	9	4	-0.2	-1.6	-1%	0.0	-21	-12
CC#CC(=O)N1CCC(C(=O)Nc2ccc(Oc3ccccc3)nc2)CC1	8	-8	-15	-21	4.9	18*	·	0.2	1	-22
COC(=O)c1ccc(-n2c(C)nc(=O)c(-c3ccccc3)c2C)cc1	-6	0	9	7	0.9	-3.4	7%	1.3	-4	-2.6
CC(C)c1ccc(S(=O)(=O)N2CCN(C(=S)NCc3ccco3)CC2)cc1	6	-4	·	·	·	?	4%	0.2	-1	·
CCc1c(C)c2c(C)[nH]nc2oc1=O	1	-8	·	·	·	1.2	-3%	0.9	-1	·
C=C(C)C(=O)Nc1cccc(C2=NOC3(C2)C[C@H](C(N)=O)N(C(=O)c2ccccc2C(=O)c2ccccc2)C3)c1 (stereo partly specified)	22	-1	·	·	·	1.2	·	-0.4	8	-5.9
COc1ccc(CCNC(=O)CCCCn2c(=O)[nH]c3ccccc3c2=O)cc1OC	-7	-8	·	·	·	-4.0	0%	0.6	5	·
Nc1c2c(nc3ccccc13)CCCC2=O	-3	4	-5	15	-0.2	-1.4	·	0.2	3	-1.6
COc1ccc(NC(=O)C2CCC(CNc3c(N4CCCCC4)c(=O)c3=O)CC2)c(OC)c1 (stereo unspecified)	-7	9	3	-6	-6.5	5.8	·	-0.7	0	9.6
CCCN1CCN(CC(=O)Nc2cc(OCC)ccc2OCC)CC1	23	-2	5	9	1.9	-6.9	-4%	-0.5	-5	8.3
Cn1c(Cl)c(/C=N/OC(=O)C2CC2)c2ccccc21	-27	2	-31	-48	-1.6	-3.5	2%	-1.2	-5	3.6
COc1ccc(CN(C)C(=O)COC(=O)c2cnc(Cl)c(Cl)c2)cc1	·	-3	-7	-4	0.8	·	·	-1.1	·	-5.4
CC(=O)N(CCc1ccccc1C)Cc1cc2cc(C)ccc2[nH]c1=O	8	1	2	-6	-0.5	7.0	·	1.2	-4	-7.7
O=C(Nc1nc2ccccc2s1)c1ccccc1[N+](=O)[O-]	1	-1	-8	-23	-1.6	-2.6	·	-1.4	17	4.6
COc1cc(C2Nc3ccc4ccccc4c3C3=C2C(=O)CC(C)(C)C3)ccc1OCC(=O)O (stereo unspecified)	-7	-6	-1	-15	3.4	-1.6	·	0.1	-3	-1.7
CCOc1ccc(NC(=O)c2ccc(NCC(=O)N3CCCCCC3)cc2)cc1	16	-2	-1	-5	-1.2	-1.9	0%	-3.4	-2	-2.1
COCCCN(CCC#N)C(=O)c1c(-c2c(Cl)cccc2Cl)noc1C	-9	0	·	·	·	-0.6	-3%	-0.3	18	-0.7
Cc1onc(-c2ccccc2Cl)c1C(=O)Nc1nnc(Cc2ccc(Cl)cc2)s1	-10	·	·	·	·	-0.9	8%	0.1	21	·
O=C(CSc1nc2ccsc2c(=O)n1NC(=O)c1ccccc1)Nc1nccs1	12	·	·	·	·	0.3	28%	-0.8	5	·
COC(=O)c1ccc(N2NC(=O)/C(=C/c3ccc(-c4ccc(Cl)c(C(=O)O)c4)o3)C2=O)cc1	-9	·	15	1	3.4	-1.0	?	·	62*	0.5
c1coc(CNC2CCCCC2)c1	-12	1	·	·	·	2.3	-1%	0.1	-26	·
O=C(NCC1OCCCN1S(=O)(=O)c1cc(F)ccc1F)C(=O)NC1CCCCC1 (stereo unspecified)	0	-3	11	9	-0.7	6.8	-6%	0.3	-6	-1.1
O=C(CCN1C(=O)S/C(=C\c2ccccc2)C1=O)Nc1ccc(O)cc1C(=O)O	-20	-1	9	9	2.2	2.8	·	-1.5	19	-10
CSCCC(NC(=O)c1ccccc1)C(=O)NCCc1ccc2c(c1)OCCO2 (stereo unspecified)	·	3	3	-26	-2.6	·	·	1.0	·	0.3
c1ccc(CCNc2nc(-c3cccnc3)cs2)cc1	16	-5	4	-6	1.5	1.8	-3%	-1.7	-5	7.8
Clc1ccc(-c2csc(N3CCCCCC3)n2)cc1	0	8	10	15	0.8	-1.4	-6%	-0.2	-6	-0.5
COc1ccc(N2CCN(S(=O)(=O)c3ccc4oc(=O)ccc4c3)CC2)cc1	5	-3	5	9	1.3	4.2	-9%	0.8	-11	-0.4
O=C(C[n+]1ccc(C(=O)N/N=C/c2ccc(O)cc2)cc1)c1ccccc1	-19	0	·	·	·	-1.6	11%	0.2	36	·
CCN(CC)CCOC(=O)c1ccc(NC(=O)CNC(=O)c2ccccc2)cc1	10	-6	5	18	5.3	-0.4	-10%	0.4	1	-0.7
Cc1cc(=O)oc(C)c1C(=O)N1CCN(C)CC1	3	1	·	·	·	-0.4	-1%	1.4	-1	·
CC(=O)c1cc2c(cc1NS(=O)(=O)c1ccc(C)cc1)OCCO2	-4	-6	·	·	·	-2.1	3%	0.5	3	·
COc1ccccc1C1C(C(N)=O)=C(C)Nc2nc(-c3ccccc3Cl)nn21 (stereo unspecified)	7	0	3	2	0.8	0.8	23%	0.6	0	1.1
CCOC(=O)N1CCC(NC(=O)c2ccc3c(c2)N(CC)CCS3)CC1	8	-4	-3	7	-7.2	-2.2	·	0.6	-1	4.1
Cc1ccccc1Nc1nnc(SCC(=O)NC(=O)NCc2ccco2)s1	1	-1	·	·	·	1.9	17%	-0.8	5	·
O=C(Cn1cc2c(n1)CCCCC2)NC1CCN(Cc2ccccc2)CC1	16	-1	7	8	1.2	-2.5	3%	0.8	-5	1.9
Cc1nn(Cc2cccc(C(=O)Nc3ccn(Cc4c(F)c(F)cc(F)c4F)n3)c2)c(C)c1[N+](=O)[O-]	68*	1	·	·	·	1.3	3%	-0.6	-10	·
COc1cc2c(cc1OC)C(=O)NCC(C)(C)O2	-18	-6	10	4	2.0	0.5	-8%	-0.1	8	-6.1
C=CCN1C(=O)N/C(=C/c2ccc(N3CCOCC3)o2)C1=O	48	109*	14	2	2.0	4.9	30%	-0.3	67	-8.8
Cc1cccc(OCCNC(=S)NC(=O)c2cncc(Br)c2)c1	-14	·	3	11	-0.5	-2.4	-3%	1.2	-8	-2.3
CCOc1ccccc1NC(=O)C1CCCN(c2c(CC)c(C)nc3ncnn23)C1 (stereo unspecified)	16	4	0	-11	-0.3	-2.5	·	-0.3	0	-0.9
CCc1ccc(C(=O)COC(=O)C2=NN(c3ccccc3)C(=O)CC2)cc1	·	-1	1	4	-5.7	·	·	0.7	·	0.9
CCOc1ccc(S(=O)(=O)N2CCC(C(=O)Nc3cc(S(C)(=O)=O)ccc3Cl)CC2)cc1	·	3	·	·	·	·	-4%	1.0	·	0.4
Cc1cccc(-n2c(=O)c(C#N)cc3c(=O)n4ccccc4nc32)c1	4	·	·	·	·	128*	-1%	0.1	24	·
Cc1c[n+](CC(=O)c2ccccc2)c(C)cn1	-10	-3	10	7	4.5	-0.9	·	2.1	-17	2.8
Cc1ccc2c(C)c(C(=O)N3CCN(c4ccncc4)CC3)oc2c1C	16	12	-8	-17	-3.2	2.0	3%	-0.2	5	16
CCSc1nc2cc(OC)c(OC)cc2c(=O)n1CC	-9	0	·	·	·	-0.8	3%	-1.9	-18	·
COc1ccc2cc3cc(C(=O)NCC4CCCO4)oc3nc2c1 (stereo unspecified)	-7	-6	·	·	·	-1.7	-6%	-1.2	3	·
Cc1nn(C)c(C)c1S(=O)(=O)NCc1cccs1	-12	-1	·	·	·	2.2	-4%	0.4	3	·
Following part
SMILES	T cruzi inh	Beta apoptosis	rRNA inh HTS	rRNA inh HTS OD600	rRNA inh HTS RFP	RanGTP-Imp inh	Vif A3G	A1 inh	Calb FLC	MLL AF4-AF9 inh
CCOc1cc(N2CCOCC2)c(OCC)cc1NC(=O)c1ccccc1C	-37	1	20	11	0.8	-0.2	11%	-0.8	46	7.1
CC(NS(=O)(=O)c1cccc(Cl)c1)C(=O)N(C)C1CCN(C)CC1 (stereo unspecified)	44	-2	·	·	·	-3.5	6%	1.9	-11	-0.5
COc1ccc(S(=O)(=O)N2CCN(Cc3cccc(Cl)c3)CC2)cc1	9	-2	·	·	·	1.6	4%	-1.1	10	·
COc1ccc(CNC(=O)C(=O)NCC2CCCN2S(=O)(=O)c2cccs2)cc1 (stereo unspecified)	18	-4	-2	5	0.2	6.2	5%	0.0	2	-1.5
CCOC(=O)c1c(C)[nH]c(C(=O)COC(=O)CCC2CCCC2)c1C	-7	-1	·	·	·	3.9	5%	-1.0	5	·
